# PKD1 kinase inh = inhibitors of human PKD1 kinase, biochemical, fluorescence polarization. AID 797, 2007. actives 0.056% (n = 200,000). inhibition, %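 (about 10 µM by stock and volumes)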. PKD1 kinase fluorescence polarization assay. Serine/threonine-protein kinase D1 (Homo sapiens), Q15139;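 active = inhibition of 50% or more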;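 also: controls were vehicle for no effect and a reference inhibitor for full effect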
# HSV augment = enhancers of HSV replication in host cells, fold increase, host cell viability | maximum fold increase | HSV replication augmentation in cells | actives 0.005% (n = 220,000);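 active = peak rise of 1.5-fold or more in the series; tested in PC3 cells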;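 also: first round at 10 µM; read as green reporter fluorescence; hits show the peak of a series up to 25 µM; 1 = signal of infected wells without compound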
# Insulin prom inh = inhibitors of insulin promoter-driven GFP, primary screen, imaging, TRM-6 cells (human fetal islet line), eGFP reporter, cell count; AID 1273, 2008; actives 0.9% (n = 130,000); inhibition, % at 2 µM; reporter expression induced with tamoxifen;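 active = inhibition above the mean plus 3 SD, with well images judged a real hit on visual review, cut at about 60% in these data, passing the limit was not always enough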
# RGS16-Gao HTS = modulators of RGS16 binding to Galphao, primary screen, biochemical, human proteins, multiplexed bead flow cytometry; binding response (% of control), % at 10 µM; Regulator of G-protein signaling 16 (Homo sapiens) + Guanine nucleotide-binding protein …; actives 0.38% (n = 220,000); bead-based flow cytometry RGS16-Galphao binding, fluorescence; actives lie on both sides;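 active = below 25% or above 175%, edge rows of some plates excepted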;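 also: Galphao activated by GDP with aluminum fluoride before binding; 100% = wells without compound and 0% = beads without RGS; some results beyond the cut were filed as inactive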
# Target sequence (O15492 whole entry, looked up): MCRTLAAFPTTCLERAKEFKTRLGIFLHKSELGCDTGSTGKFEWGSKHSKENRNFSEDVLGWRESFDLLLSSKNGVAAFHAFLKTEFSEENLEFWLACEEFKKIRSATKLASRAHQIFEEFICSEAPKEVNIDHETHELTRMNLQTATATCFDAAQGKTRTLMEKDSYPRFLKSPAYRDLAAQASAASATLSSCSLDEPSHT
# Target sequence (P09471 whole entry, looked up): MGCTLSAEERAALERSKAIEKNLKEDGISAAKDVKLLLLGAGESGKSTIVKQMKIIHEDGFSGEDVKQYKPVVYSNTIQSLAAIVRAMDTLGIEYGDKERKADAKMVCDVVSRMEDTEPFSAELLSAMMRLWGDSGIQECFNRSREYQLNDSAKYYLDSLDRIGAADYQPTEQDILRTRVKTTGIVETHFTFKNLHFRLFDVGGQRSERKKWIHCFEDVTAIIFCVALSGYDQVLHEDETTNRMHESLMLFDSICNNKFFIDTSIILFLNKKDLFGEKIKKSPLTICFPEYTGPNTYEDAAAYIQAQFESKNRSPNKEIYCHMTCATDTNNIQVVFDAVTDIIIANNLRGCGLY
# GALR2 agonist = GALR2 receptor agonists, primary screen, cell-based; actives 0.48% (n = 140,000); AID 803, 2007; GALR2-expressing cells, agonist activation read-out; Galanin receptor type 2 (Homo sapiens), O43603; activation, %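 (tested at 5 µM)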;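 active = above mean plus 3 SD of all compounds, about 5% in these data, not always enough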;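 also: 0% = vehicle buffer wells and 100% = reference agonist at full effect; tested in CHO reporter cells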
# Target sequence (O43603 whole entry, looked up): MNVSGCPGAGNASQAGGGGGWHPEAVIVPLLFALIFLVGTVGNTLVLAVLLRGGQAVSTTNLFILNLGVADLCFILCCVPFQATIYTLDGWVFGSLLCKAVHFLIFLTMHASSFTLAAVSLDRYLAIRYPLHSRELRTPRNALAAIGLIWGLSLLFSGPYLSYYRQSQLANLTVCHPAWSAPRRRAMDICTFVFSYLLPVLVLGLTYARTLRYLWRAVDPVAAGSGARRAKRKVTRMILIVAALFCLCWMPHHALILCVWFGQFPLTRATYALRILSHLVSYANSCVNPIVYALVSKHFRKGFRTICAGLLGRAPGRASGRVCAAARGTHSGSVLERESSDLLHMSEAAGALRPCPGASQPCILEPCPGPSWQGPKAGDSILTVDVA
# Insulin prom inh cell count = also measured in Insulin prom inh; calls as there; normalized cell count, %; measured here: cell count, toxicity; reference of the scale not given here;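 cells exposed to compound for 48 h; stained nuclei by imaging scaled within each plate; lower means fewer cells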
# HSV augment primary fold = recorded beside HSV augment, whose call it bears; fold increase; compound at 10 µM; measured here: primary screen fold increase 10 uM; tested in PC3 cells;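 GFP signal in the first replicate; 1 = infected wells without compound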
# * = called active by the depositor; i = inactive; . = no result given. Only part of the results is shown; the hit share may differ from the screen's.
SMILES,PKD1 kinase inh,HSV augment,HSV augment primary fold,Insulin prom inh,Insulin prom inh cell count,RGS16-Gao HTS,GALR2 agonist
O=C(NC1CN2CCC1CC2)c1cc(Cl)c([N+](=O)[O-])c2nc[nH]c12 (stereo not drawn),8.5,i,0.96,-250.0,65.9,92.5,0.1
CCOC(=O)c1c(C)n(C(C)C)c2ccc(OC(=O)c3ccc(N4C(=O)CCC4=O)cc3)cc12,3.2,i,0.91,.,.,126.5,2.5
O=C1NC(=O)N(Cc2ccc(F)cc2)C(=O)/C1=C/c1cccs1,1.3,i,1.24,30.0,94.0,70.9,.
O=C1C(c2ccccc2)=C(N2CC2)c2ccccc21,-3.3,i,0.8,-8.1,171.6,103.0,-0.2
COC(=O)CCCNC(=O)CN1CC(c2ccccc2)CC1=O (stereo not drawn),-0.3,i,0.86,-36.4,71.0,101.4,-0.9
CCN1CCN(c2nc3c(c(=O)[nH]2)CCCC3)CC1,-0.8,i,1.03,.,.,100.3,-2.3
COc1cc(CN=C(C)c2c(O)n(C)c(=O)n(C)c2=O)cc(OC)c1,.,i,0.94,.,.,94.4,.
Cn1c(O)c(C=NC2CCN(Cc3ccccc3)CC2)c(=O)[nH]c1=O,.,i,0.95,.,.,102.1,.
Cc1nc2ccccc2c(=O)n1-c1cccnc1,0.4,i,1.01,.,.,102.2,-2.4
O=C(C(=O)N1CCOCC1)c1cn(CCCOc2ccccc2)c2ccccc12,-10.9,i,0.78,.,.,99.2,.
CCOC(=O)CC(NC(=O)C(Cc1ccc(N(CCCl)CCCl)cc1)NC(C)=O)C(=O)OCC (stereo not drawn),-1.9,i,0.76,-78.6,35.6,100.7,.
CCCOP(=O)(OCCC)C(NC(=O)c1ccccc1)=C(Cl)Cl,-5.0,i,0.95,.,.,101.8,0.7
c1ccc2nc(OCCN3CC3)ccc2c1,.,i,0.8,.,.,99.1,.
CCC/C(=N\O)c1c[nH]c2ccccc12,-11.8,i,1.04,.,.,108.1,-3.6
CN1CCN(c2ncnc3c2cnn3C)CC1,.,i,1.12,.,.,102.0,.
O=c1[nH]c(=S)n(Cc2ccc(F)cc2)c(O)c1C=NCC1CCCO1 (stereo not drawn),-5.2,i,0.82,-19.4,110.9,107.2,-1.5
COc1ccc(/C=C2\C(=O)NC(=S)N(C)C2=O)cc1C,-1.8,i,0.91,.,.,49.2,.
COc1ccc2c(CCN)c[nH]c2c1,4.0,i,1.07,-10.7,119.4,99.2,-0.8
Cc1cccn2c(NCC3CCCO3)c(C(C)C)nc12 (stereo not drawn),0.5,i,0.9,0.0,84.7,95.0,-1.5
C=CC1CN2CCC1CC2C(OC(C)=O)c1ccnc2ccc(OC)cc12 (stereo not drawn),.,i,1.07,.,.,95.4,.
Cc1ccc(CN2CCN(Cc3ccccc3)CC2)cc1,9.5,i,0.94,6.7,124.6,102.8,.
CCCCn1c(=O)c(C=Nc2ccc(Cl)cc2)c(O)n(Cc2ccco2)c1=O,5.1,i,1.05,-7.1,115.2,97.2,-0.5
COc1ccc(OCC#CCN2CCC(C)CC2)cc1,-8.3,i,0.93,-23.5,79.7,99.5,.
O=C1CN=C(c2ccccc2F)c2cc(Cl)ccc2N1,3.5,i,0.62,14.3,60.6,32.9,-0.2
Cc1ccc(CS(=O)(=O)Cc2ccc(C(=O)N3CCC4(CC3)OCCO4)o2)cc1,-1.7,i,0.88,12.5,104.5,98.6,-1.0
CSc1ccccc1C(=O)C1CCCN(Cc2ccccn2)C1 (stereo not drawn),2.0,i,1,.,.,92.0,.
Cc1ccccc1-n1c(O)c(/C=N/NC(=O)c2ccncc2)c(=O)[nH]c1=O,.,i,0.91,.,.,98.2,.
C=CCn1c(O)c(C(CC)=NCCc2c[nH]c3ccccc23)c(=O)[nH]c1=O,.,i,0.91,.,.,102.9,.
CCOC(=O)C(NC(C)=O)C(OC(C)=O)c1cccc(N(CCCl)CCCl)c1 (stereo not drawn),-9.3,i,0.9,-332.4,61.3,99.4,-1.5
Cc1cccnc1NC1=NCC(C)S1 (stereo not drawn),0.7,i,0.87,68.8,109.3,99.3,-0.2
O/N=C/c1c[nH]c2ccccc12,-4.7,i,0.99,.,.,98.9,-0.8
CCCC1C(C#N)=C(N)Oc2c1c(=O)oc1ccccc21 (stereo not drawn),-3.9,i,0.96,23.8,97.7,106.2,-1.4
O=C1CC(=O)N(c2ccc(Cl)cc2Cl)C(=O)N1,4.7,i,0.92,17.4,98.2,104.1,-1.6
CC[C@@]1(O)C(=O)OCc2c1cc1n(c2=O)Cc2cc3c(NC(=O)CN)cccc3nc2-1,.,i,0.63,.,.,91.4,.
CC(=O)Nc1ccc2c(c1)CC1(C(=O)N(C)C(=O)N(C)C1=O)C1CCCN21 (stereo not drawn),-6.5,i,0.81,.,.,97.4,-2.6
O=C(c1c[nH]cc1-c1ccccc1)c1cccc2ccccc12,-3.6,i,0.8,59.1,160.2,105.4,-2.0
COc1cc(/C=C2\C(=O)NC(=O)N(c3ccccc3)C2=O)c([N+](=O)[O-])cc1OC,7.7,i,1.1,47.4,90.0,93.5,.
CCC(=NCc1cccnc1)c1c(O)n(Cc2ccccc2)c(=O)[nH]c1=O,-7.5,i,0.92,-85.3,39.7,81.1,0.3
COc1cccc(-n2c(CN3CCN(C)CC3)nc3ccc([N+](=O)[O-])cc3c2=O)c1,-5.5,i,0.99,-17.2,68.1,99.9,-0.8
Clc1cccc(CN2CCCCC2c2cccnc2)c1 (stereo not drawn),-1.7,i,0.88,.,.,.,-1.6

# Part of the list above in order of length of the SMILES, low to high.
SMILES,PKD1 kinase inh,HSV augment,HSV augment primary fold,Insulin prom inh,Insulin prom inh cell count,RGS16-Gao HTS,GALR2 agonist
O/N=C/c1c[nH]c2ccccc12,-4.7,i,0.99,.,.,98.9,-0.8
COc1ccc2c(CCN)c[nH]c2c1,4.0,i,1.07,-10.7,119.4,99.2,-0.8
CN1CCN(c2ncnc3c2cnn3C)CC1,.,i,1.12,.,.,102.0,.
Cc1nc2ccccc2c(=O)n1-c1cccnc1,0.4,i,1.01,.,.,102.2,-2.4
COc1ccc(OCC#CCN2CCC(C)CC2)cc1,-8.3,i,0.93,-23.5,79.7,99.5,.
Cc1ccc(CN2CCN(Cc3ccccc3)CC2)cc1,9.5,i,0.94,6.7,124.6,102.8,.
Cc1cccn2c(NCC3CCCO3)c(C(C)C)nc12 (stereo not drawn),0.5,i,0.9,0.0,84.7,95.0,-1.5
O=C(C(=O)N1CCOCC1)c1cn(CCCOc2ccccc2)c2ccccc12,-10.9,i,0.78,.,.,99.2,.
Cc1ccccc1-n1c(O)c(/C=N/NC(=O)c2ccncc2)c(=O)[nH]c1=O,.,i,0.91,.,.,98.2,.
O=C(NC1CN2CCC1CC2)c1cc(Cl)c([N+](=O)[O-])c2nc[nH]c12 (stereo not drawn),8.5,i,0.96,-250.0,65.9,92.5,0.1
CC(=O)Nc1ccc2c(c1)CC1(C(=O)N(C)C(=O)N(C)C1=O)C1CCCN21 (stereo not drawn),-6.5,i,0.81,.,.,97.4,-2.6
CC[C@@]1(O)C(=O)OCc2c1cc1n(c2=O)Cc2cc3c(NC(=O)CN)cccc3nc2-1,.,i,0.63,.,.,91.4,.

# New compounds follow
SMILES,PKD1 kinase inh,HSV augment,HSV augment primary fold,Insulin prom inh,Insulin prom inh cell count,RGS16-Gao HTS,GALR2 agonist
COC(=O)C(C)Oc1cc(C)cc2oc(=O)c3c(c12)CCC3 (stereo not drawn),1.9,i,1,.,.,95.4,-1.7
O=C1NC2NC(=O)N([N+](=O)[O-])C2N1 (stereo not drawn),.,i,1.11,.,.,115.4,.
CC1OC(NCCc2ccccc2)C(O)C(O)C1O (stereo not drawn),-8.1,i,0.88,17.1,135.3,102.4,0.6
O=C(Cc1ccccc1)N1CCN(CC2CC=CCC2)CC1 (stereo not drawn),-2.4,.,.,5.6,102.1,118.5,-1.5
O=C1C2CCCN2C(c2cccnc2)N1c1ccc(Cl)c(Cl)c1 (stereo not drawn),-2.2,i,1.11,26.7,49.3,99.5,-3.2
CCNCC1(c2ccc(OC)c(OC)c2)CCCC1,-7.4,i,0.96,.,.,95.2,-1.1
O=C(c1cccc(C(F)(F)F)c1)C1CCCN(Cc2ccccc2O)C1 (stereo not drawn),4.1,i,0.76,.,.,142.7,.
COCCCNC(=O)c1c(NC(=O)c2ccco2)n(Cc2ccccc2)c2nc3ccccc3nc12,-14.3,i,1.16,.,.,98.9,8.6
Cc1ccccc1NC(=O)CCl,.,i,0.9,.,.,104.7,.
CC(=NCC1CCCO1)c1c(O)n(Cc2ccccc2)c(=O)[nH]c1=O (stereo not drawn),-11.6,i,0.997,.,.,99.3,-2.6
C[n+]1c(-c2ccccc2)cc(-c2ccc(O)cc2)cc1-c1ccccc1,-4.9,i,1.07,.,.,99.7,.
C=C1C[C@@H]2[C@H](CC[C@]3(C)C(=O)CC[C@@H]23)[C@@]2(C)C=CC(=O)C=C12,.,i,0.85,.,.,105.7,.
CC12CN3CCN(CC(C3)C1O)C2 (stereo not drawn),-6.9,i,1.01,18.2,116.4,98.3,-1.9
Cc1ccc(OCC(=O)Nc2ccc(Cl)cc2C(=O)c2ccccc2)cc1,-7.8,i,1.01,33.3,109.5,100.8,-1.4
O=C1NC(=O)C(CCc2ccncc2)(Cc2cccc(Cl)c2Cl)C(=O)N1c1ccc(Br)cc1 (stereo not drawn),7.0,i,0.77,.,.,100.1,-0.1
CN1CCC(O)(c2ccccc2)C2CCCC21 (stereo not drawn),5.1,i,0.8,-138.5,96.8,98.2,-4.0
COc1ccc(CNC(=O)/C=C/c2ccc3[nH]cc(CCN(C)C)c3c2)cc1,.,i,0.68,.,.,108.2,.
CCn1c(O)c(C=NCc2ccccc2)c(=O)[nH]c1=S,-1.2,i,0.94,42.9,85.2,102.0,.
COc1ccc(C(C)=O)cc1CC(C(=O)c1ccc(C)cc1)N(C)C (stereo not drawn),0.6,i,1.03,-11.8,88.8,101.1,-0.3
O=c1oc2ccccc2c(O)c1C(c1ccccn1)c1c(O)c2ccccc2oc1=O,.,i,1.01,.,.,94.4,.
O=C1/C(=C\c2cc3c(cc2Cl)OCO3)N2CCC1CC2,-9.8,i,0.88,27.6,106.6,92.8,-0.2
CCC(C)N1CCN(C(=O)Cc2ccccc2)CC1 (stereo not drawn),-6.7,i,0.94,-35.7,112.5,103.1,-1.8
CCOC(=O)CN1C(=O)C2(C(C#N)=C(N)Oc3ccccc32)C(C(=O)OC)=C1C (stereo not drawn),-2.1,i,1.09,18.8,177.2,92.0,-1.2
O=c1c2ccccc2nc(-c2ccccc2)n1-c1nccs1,5.4,i,1,21.4,144.9,102.3,-0.2
CCCCN1C(=O)NC(=O)C2(Cc3c(nc4c(C)cccn4c3=O)N3CCc4ccccc4C32)C1=O (stereo not drawn),-4.3,.,.,-7.5,111.7,124.8,2.8
CN1CC(C(=O)c2ccc(Cl)cc2)C(c2ccc(N(C)C)cc2)C1 (stereo not drawn),0.3,i,0.92,.,.,100.0,.
NCCc1ccc(S(N)(=O)=O)cc1,-8.0,i,1.07,.,.,102.2,.
CCOc1cc(CNCCc2c[nH]c3ccccc23)cc(Cl)c1OC,-0.6,i,0.88,20.0,94.7,112.1,.
C[C@H]1C[C@@H](C)C(=O)[C@@H]([C@H](O)CC2CC(=O)NC(=O)C2)C1,2.3,i,0.42,.,.,103.4,.
Cc1ccc(C2=NC(C)(C)N3C2C3c2ccc([N+](=O)[O-])cc2)cc1 (stereo not drawn),-7.0,i,0.88,-7.7,94.9,98.9,10.3*
Cc1nc2cc(-c3ccc(Cl)cc3)nn2c(C)c1CCC(=O)N1CCC2(CC1)OCCO2,-5.2,.,.,40.0,150.2,.,-0.1
CC[N+](C)(CC)CCCOC(=O)C(O)(c1ccccc1)C1CCCCC1 (stereo not drawn),-8.1,i,0.85,27.8,167.5,113.5,-0.7
CCC(C)C1(CC)C(=O)NC(=O)N=C1N (stereo not drawn),10.0,i,0.97,.,.,99.4,-1.4
CN(C)c1ccc(C(=O)c2ccc(N(C)C)cc2)cc1,5.8,i,0.96,.,.,98.3,-0.3
O=C1CC(c2cccnc2)=NN1c1ccccc1,-0.3,i,0.85,53.9,55.5,99.8,.
CCCC1(CCC)C(=O)NC(=Nc2ccccc2)NC1=O,-5.0,i,0.73,50.0,120.0,103.6,-2.5
